Bioassay records: PubChem, ICCB-Longwood Screening Facility, Harvard Medical School
Sa growth inh = S. aureus growth inhibition at 42 and 30 °C, primary screen, LtaS inhibitor project, RN4220, two temperatures; OD600, 20 h, 42 °C; active compounds read low; relative growth, % (no concentration beside the values); 170,000 tested, 0.53% active; AID 720641, 2013;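 active means growth at 42 °C up to 50% and 20 or more points under that at 30 °C, or under 10% at both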;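 further: 300 nL library stock went into each well; scaled to the means of positive and negative controls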
HCMV UL50-53 inh = inhibitors of HCMV UL50-UL53 interaction, biochemical, HTRF; AID 1918969, 2023; normalized percent inhibition; inhibition, % (test concentration not listed); 190,000 tested, 0.15% active; HCMV UL50-UL53 nuclear egress complex (human cytomegalovirus);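 active means both replicates at 50% or more, plus weaker picks with an unusually low signal ratio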;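 further: stock transfer was 100 nL into about 20 µL; 0% = negative control wells and 100% = wells with untagged competitor protein; inactives centre near -12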
GIV-Gai inh = inhibitors of GIV peptide binding to Galpha-i3, primary screen, biochemical, fluorescence polarization, FITC-GIV GBA peptide, rat Galphai3 | Guanine nucleotide-binding protein G(i) subunit alpha-3 (Rattus norvegicus), P08753 | 90 min; active compounds read low; scaled: aluminum fluoride 0%, vehicle 100% | percent of control (FP), % (no concentration beside the values) | 210,000 tested, 0.42% active;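 active means replicate mean at 85% of control or lower, very high polarization wells dropped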;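 further: wells of about 15 µL received 100 nL stock; the first replicate is given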
Target sequence (P08753 whole entry, looked up): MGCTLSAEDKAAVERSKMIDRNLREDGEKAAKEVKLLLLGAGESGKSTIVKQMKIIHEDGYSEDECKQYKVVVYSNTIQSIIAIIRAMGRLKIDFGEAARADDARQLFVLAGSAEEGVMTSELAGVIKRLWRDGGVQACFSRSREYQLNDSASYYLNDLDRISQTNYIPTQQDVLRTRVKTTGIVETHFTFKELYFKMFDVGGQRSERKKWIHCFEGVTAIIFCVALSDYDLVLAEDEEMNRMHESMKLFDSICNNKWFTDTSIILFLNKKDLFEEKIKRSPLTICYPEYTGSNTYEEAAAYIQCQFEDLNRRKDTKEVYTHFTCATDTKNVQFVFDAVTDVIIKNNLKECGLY
Sa growth inh second temp = second read-out of Sa growth inh, no call of its own (marks repeat the call); relative growth, %; measured here: growth at 30 °C;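 optical density after 20 h as mean of two plates; 100% = untreated growth and lower means inhibition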
* = called active by the depositor; nt = no result given; & = joins results of further samples. This is a random part of the collection, and some 0.79% of all compounds hit somewhere here.

1	O=C(c1ccccc1)c1ccc2nc(-c3ccco3)c(-c3ccco3)nc2c1
2	CS(=O)(=O)c1ccc(C(=O)NCCc2ccc(S(N)(=O)=O)cc2)cc1
3	CCOC(=O)c1ccc(N2C(=O)c3n[nH]c(C)c3C2c2ccc(OCC)cc2)cc1 (stereo unspecified)
4	O=C1CCC(C(=O)OCC(=O)c2ccc(Cl)cc2)=NN1
5	Nn1c(SCC(=O)Nc2ccccc2)nncc1=O
6	O=c1[nH]c2cc(-c3noc(COc4ccc(Cl)cc4)n3)ccc2n1C1CCCC1

entry no.	1	2	3	4	5	6
Sa growth inh	80	92	102	91	80	nt
Sa growth inh second temp	45	93	89	86	78	nt
HCMV UL50-53 inh	-53	-16	3	-32	-35	-33
GIV-Gai inh	118	nt	107	nt	100	102

7	CC(C)c1ccc(OC(=O)c2cc(-c3ccc4c(c3)OCCO4)on2)cc1
8	COc1ccc(-c2nn(CCCC(=O)NC(C)C)c(=O)c3noc(C)c23)cc1
9	O=c1[nH]cnc2sc3c(c12)CCCC3
10	O=C(Nc1nc2c(s1)Cc1ccccc1-2)c1ccco1
11	O=C1CS/C(=N/C(=O)NCC2CCCC(CNC(=O)/N=C3\NC(=O)CS3)C2)N1 (stereo unspecified)
12	CCOC(=O)C1=NN(c2ccccc2)C2(C(=O)c3ccccc3C2=O)C1c1ccc(C)cc1 (stereo unspecified)

entry no.	7	8	9	10	11	12
Sa growth inh	83	nt	107	128	96	109
Sa growth inh second temp	91	nt	104	86	68	91
HCMV UL50-53 inh	7&10	-9	9&-29	-8	-29	-43
GIV-Gai inh	105&100	100	107	105	nt	97

13	Cn1c(=O)[nH]c(=O)c2c1nc(CN1CCN(c3ccccc3F)CC1)n2Cc1ccc(F)cc1
14	O=C(O)CC1(O)CC(=O)N(c2ccccc2)C1=O (stereo unspecified)
15	COc1ccc(OCC(=O)NCC(c2ccccc2)c2c[nH]c3ccccc23)cc1 (stereo unspecified)
16	O=C(Nc1ccc(F)c(F)c1)c1nc2ncccn2n1
17	COC(=O)CNC(=O)C1CCN(c2nc(C)cc(-c3ccccc3)n2)CC1
18	CN(C1CCCCC1)S(=O)(=O)c1ccc2c(c1)c(=O)c(C(=O)N1CCN(c3ccccn3)CC1)cn2C

entry no.	13	14	15	16	17	18
Sa growth inh	93	99	nt	102	99	nt
Sa growth inh second temp	95	79	nt	74	76	nt
HCMV UL50-53 inh	17	-31	-20	-2	2	-3
GIV-Gai inh	110	101	105	101	105	107

19	O=C(NCc1ccccc1)C1CCN(c2ccncc2)CC1
20	COc1ccc(CNc2ccccn2)cc1OC
21	Cc1ccc(N2C(=O)CC(c3ccc4c(c3)OCO4)C3=C2CC(C)(C)CC3=O)cc1 (stereo unspecified)
22	COC(=O)N1CCCc2cc(C)ccc21
23	CN(C)CCC(=O)c1ccco1
24	O=C1CCS(=O)(=O)N1c1ccc(S(=O)(=O)NCCCn2ccnc2)cc1

entry no.	19	20	21	22	23	24
Sa growth inh	nt	85	78	105	79	nt
Sa growth inh second temp	nt	81	73	107	74	nt
HCMV UL50-53 inh	-8	nt	nt	-2	4	-32
GIV-Gai inh	101	98	102	105	nt	106

25	CC1CC(C)CN(CCCNC(=O)c2ccc3c(c2)N(C)C(=O)/C(=C/c2ccccc2F)S3)C1 (stereo unspecified)
26	Cc1ccc(/C=C2\SC(=O)N(c3ccccc3)C2=O)o1
27	Cn1c(=O)c2c(SCC(=O)N3CCCc4ccccc43)nc(-c3cccs3)nc2n(C)c1=O
28	O=C(CCCc1nc(-c2ccco2)no1)Nc1ccccc1[N+](=O)[O-]
29	Cc1cc(OCC(=O)Nc2sc3c(c2C(N)=O)CCCC3)ccc1C(C)C
30	CCOc1ccc(C(=O)Cn2c(=O)n3nc(CCn4nc(C)cc4C)nc3c3cc(OC)c(OC)cc32)cc1

entry no.	25	26	27	28	29	30
Sa growth inh	100	104	88	103	93	97
Sa growth inh second temp	87	68	92	77	91	95
HCMV UL50-53 inh	nt	-5	nt	-61	-35	nt
GIV-Gai inh	105	104	101	105	101	104

31	Cc1ccc(-c2nnc(Nc3ccc(O)cc3)c3ccccc23)cc1S(=O)(=O)NCc1nc2ccccc2[nH]1
32	COc1ccc(-c2ocnc2C(=O)NCCN2CCCCCC2)cc1
33	CSCC(C(=O)O)N1C(=O)c2ccc(C(=O)O)cc2C1=O (stereo unspecified)
34	CCC1CCCCN1C(=O)COC(=O)c1ccc(O)cc1 (stereo unspecified)
35	Cc1ncc(CNS(=O)(=O)c2ccccc2C(F)(F)F)c(N)n1
36	C=CCN1C(=O)C(CC(=O)Nc2ccccc2)SC1=Nc1ccc(O)cc1 (stereo unspecified)

entry no.	31	32	33	34	35	36
Sa growth inh	105	79	94	106	100	90
Sa growth inh second temp	92	91	96	98	87	83
HCMV UL50-53 inh	4	28	-16	-8	-12	nt
GIV-Gai inh	113	106	nt	nt	99	102

37	O=C(Nc1ccc(F)cc1)N1CCN(C(=O)c2nsc3ccccc23)CC1
38	COc1ccc(Cl)cc1NC(=O)c1nn(-c2ccc(C)cc2)c(=O)n(C)c1=O
39	C=CCOc1cccc(/C=C2/C(=O)NC(=S)N2C(C)=O)c1
40	CC(C)N=Cc1nc(-c2ccccc2)[nH]c1Cl
41	O=C(COC(=O)c1ccccc1)NC1CC1
42	Cc1oc(-c2ccc(C(=O)Nc3ccc(F)cc3)cc2)nc1COc1ccccc1

entry no.	37	38	39	40	41	42
Sa growth inh	82	90	111	nt	102	122
Sa growth inh second temp	81	91	71	nt	89	102
HCMV UL50-53 inh	nt	nt	-13	-27	-14	nt
GIV-Gai inh	98	102	102	100	nt	108

43	COc1ccc(CNC(=O)CC2Oc3ccc(C)cc3NC2=O)cc1 (stereo unspecified)
44	CCOC(=O)c1c(C)n(-c2ccccc2)c2c1cc(OC(=O)c1ccccc1OC)c1ccccc12
45	CCOc1ccccc1-c1noc(CSc2nnc(-c3ccncc3)n2-c2ccc(F)cc2)n1
46	CC(C)(C)c1ccc(C(=O)n2cc(Br)cn2)cc1
47	COc1ccccc1NC(=O)CCC(=O)N1CCSc2ccccc21
48	O=C1N(Cc2ccccc2)CCN1C1CCN(S(=O)(=O)c2cccc(Cl)c2)CC1

entry no.	43	44	45	46	47	48
Sa growth inh	105	nt	107	96	101	nt
Sa growth inh second temp	92	nt	76	108	89	nt
HCMV UL50-53 inh	-15	-18	-18	7	-22	-2
GIV-Gai inh	96	101	99	107	105	106

49	COc1ccc(-c2cc(C(=O)Nc3cccnc3)no2)cc1OC
50	O=C(Nc1nc2ccsc2c(=O)s1)c1ccccc1
51	COc1cccc(-c2cc(C(F)(F)F)nc(-n3cccn3)n2)c1
52	O=C(Oc1ccc(-c2nnco2)cc1)c1ccccc1F
53	CC1Sc2ccccc2NC(=O)C1C (stereo unspecified)
54	COc1ccccc1/C=C/c1nc2ccccc2n1C(C)C

entry no.	49	50	51	52	53	54
Sa growth inh	98	111	77	101	100	107
Sa growth inh second temp	86	92	52	89	99	61
HCMV UL50-53 inh	-11	-18	nt	-7	-7	-31
GIV-Gai inh	101	99	104	nt	107	100

55	COc1ccc(Cl)cc1N(C)C(=O)Cn1cnc2sc(C)c(S(=O)(=O)N3CCN(c4ncccn4)CC3)c2c1=O
56	CC(=O)Nc1ccc2c(C)cc(=O)[nH]c2c1
57	CCc1nn2c(=O)c(S(=O)(=O)Nc3ccc(C(C)C)cc3)c(C)nc2s1
58	COc1ccc(C(=O)Cc2nc3ccccc3[nH]2)cc1OC
59	O=C(CSc1ncccn1)N(C1CCCCC1)C1CCCCC1
60	COc1ccc(C(=O)Nc2ccon2)cc1S(=O)(=O)Nc1ccccc1

entry no.	55	56	57	58	59	60
Sa growth inh	96	96	117	73	113	104
Sa growth inh second temp	88	101	82	78	91	85
HCMV UL50-53 inh	-11	2	-10	-21	-8	-2
GIV-Gai inh	106	nt	107	nt	nt	103

61	COc1ccc(S(=O)(=O)NCC23CC4CC(CC(C4)C2)C3)cc1
62	O=c1c2ccccc2nc2c3ccccc3c(SCc3ccco3)nn12
63	O=C1/C(=C/c2ccco2)CC(c2ccccc2)C/C1=C\c1ccco1 (stereo unspecified)
64	Cc1ccc(CC(=O)NCc2nc(-c3cccc(C)c3)no2)cc1
65	O=C(CSc1nnc(-c2ccc(C(F)(F)F)cn2)s1)c1ccccc1
66	COc1ccc(N2CC(NC(=O)N(CCO)Cc3ccccc3)CC2=O)cc1 (stereo unspecified)

entry no.	61	62	63	64	65	66
Sa growth inh	100	92	72	110	105	85
Sa growth inh second temp	87	82	48	102	90	82
HCMV UL50-53 inh	-11	-31	nt	-9	-6	-28
GIV-Gai inh	nt	nt	114	114	99	99

67	O=C1c2ccccc2C(=O)N1CSc1nc2ccccc2s1
68	CC(=O)N1CCCc2cc(S(=O)(=O)N3CCN(c4ccc(F)cc4)CC3)ccc21
69	CCc1ccc(NC(=O)N2CCCC2c2ccc(Cl)cc2)cc1 (stereo unspecified)
70	CNC(=O)NNc1ccc(-c2csnn2)cc1
71	CCOC(=O)N1CCN(C(=O)c2ccccc2NC(=O)c2cccc(C)c2)CC1
72	O=C(Cn1cnc2c(nnn2Cc2ccc(F)cc2)c1=O)OCc1ccccc1

entry no.	67	68	69	70	71	72
Sa growth inh	75	84	nt	102	124	97
Sa growth inh second temp	84	91	nt	97	98	88
HCMV UL50-53 inh	-6	nt	-25	-12	-2	1
GIV-Gai inh	nt	102	101	111	107	99

73	N#CCCn1cc(/C=C/C(=O)Oc2cccc(-n3cnnn3)c2)c2ccccc21
74	COC(=O)c1c(C)oc2ccc(N(C(=O)c3ccncc3)S(=O)(=O)c3cc(C)c(C)cc3C)cc12
75	O=C1Cc2ccccc2C(c2cccc(Cl)c2)N1 (stereo unspecified)
76	O=C(Nc1nnc(C2CC2)s1)c1ccc2ncsc2c1
77	CN(C)C(=S)SCC(=O)Nc1ccccc1O
78	CCOc1ccc(NC(=O)C2CCN(c3nc4ccccc4[nH]3)CC2)cc1

entry no.	73	74	75	76	77	78
Sa growth inh	98	96	105	96	98	107
Sa growth inh second temp	85	91	79	67	91	101
HCMV UL50-53 inh	-24	-5	0	8	15	nt
GIV-Gai inh	nt	108	102	nt	100	109

79	COC(=O)COc1ccc(Oc2nc(SC)nc(N(C)C)n2)nn1
80	COc1ccc(C2NC(=O)c3c(sc4c3CCC4)N2)cc1 (stereo unspecified)
81	CCN(Cc1ccncc1)C(=O)C(CO)c1ccccc1 (stereo unspecified)
82	CCOc1cc2c(cc1CCC(=O)O)CCC2
83	Cc1cc2ncn(S(=O)(=O)N3CCOCC3)c2cc1C
84	O=C(CC(c1ccc(Cl)cc1)C1CCCCC1=O)c1ccc(Br)cc1 (stereo unspecified)

entry no.	79	80	81	82	83	84
Sa growth inh	101	81	96&92	104	97	87
Sa growth inh second temp	84	61	99&90	93	86	93
HCMV UL50-53 inh	nt	nt	-12&-27&-14&-12&-8&-43&-19	-22	-6	4
GIV-Gai inh	108	133	107&98	101	103	nt

Whole records as entered above:
Cc1cc2ncn(S(=O)(=O)N3CCOCC3)c2cc1C as listed: Sa growth inh = 97; Sa growth inh second temp = 86; HCMV UL50-53 inh = -6; GIV-Gai inh = 103
O=C(Nc1nc2ccsc2c(=O)s1)c1ccccc1 as listed: Sa growth inh = 111; Sa growth inh second temp = 92; HCMV UL50-53 inh = -18; GIV-Gai inh = 99

(further entries)
85	COc1cccc(CCN2CCC(CNC(=O)Cn3c(=O)oc4ccccc43)CC2)c1
86	O=C1/C(=C/c2ccc(-c3ccccc3Cl)o2)SC(=S)N1CC1CCCO1 (stereo unspecified)
87	CC1(C)Cc2c(sc3ncn4nc(-c5ccncc5)nc4c23)C(C)(C)N1
88	CCOC(=O)C1C2C=CC3(CN(C4CCCC4)C(=O)C13)O2 (stereo unspecified)
89	COc1ccc(-n2c(=O)c3ccccc3n(CC(=O)NC3CCCC3)c2=O)cc1OC
90	CCc1ccc(-c2nc(SCC(=O)NCC3CCCO3)c(-c3ccc(F)cc3)[nH]2)cc1 (stereo unspecified)

entry no.	85	86	87	88	89	90
Sa growth inh	95	105	98	110	nt	111
Sa growth inh second temp	95	88	97	96	nt	89
HCMV UL50-53 inh	-4	-7	-3	0	-36	-9
GIV-Gai inh	103	nt	106	nt	105	102

91	CCc1nnc2c(NCc3ccccc3OC)nc3ccccc3n12
92	CC(=O)Nn1nc2c(n1)C(=NNC(=O)c1ccccc1)c1nn(NC(C)=O)nc1C2=NNC(=O)c1ccccc1
93	COc1cccc(NC(=O)CN2C(=O)c3cccnc3Oc3ccc(Cl)cc32)c1
94	CN1C2CCC1CC(NC(=O)c1ccc(Cl)cc1)C2 (stereo unspecified)
95	COc1ccc(NC(=O)Nc2cc3[nH]c(=O)[nH]c3cc2C)cc1

entry no.	91	92	93	94	95
Sa growth inh	106	111	102	116	nt
Sa growth inh second temp	101	96	91	85	nt
HCMV UL50-53 inh	nt	-5	nt	-1	-12
GIV-Gai inh	102	100	109	98	105
